Compound activity: PubChem BioAssay, National Center for Advancing Translational Sciences (NCATS)
TsaE inh: displaces an ADP probe from E. coli YjeE (TsaE); P0AF67; purified YjeE, fluorescence polarisation of a bound ADP probe; Potency, µM; 71,000 compounds, 0.05% hits; active = well fitted falling curve; inconclusive = weaker or top-dose-only fall, or a rising curve; inactive = flat or poorly fitted curve;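 note: top concentration of the series not given in the record; excess ADP was the control for the full effect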
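Fluorescence polarization of a BODIPY Texas Red–ADP probe (2 uM) bound to purified YjeE (10 uM) was read after 15 min room-temperature incubation with compounds. Loss of polarization marks inhibitors; ADP serves as titrated control.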
PK Bst: alters activity of Bacillus stearothermophilus pyruvate kinase; partly purified Bacillus stearothermophilus pyruvate kinase, luminescence ATP production; ribose 5-phosphate activator present at AC10; Potency, µM; 51,000 compounds, 1.2% hits; AID 361; in the data active means potency below about 11 µM; inconclusive means mostly about 12 µM to 25 µM; inactive means weaker than that;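 the screen sought inhibitors and activators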;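 note: potency is the fitted concentration of half-maximal effect; scaled between full activation by ribose 5 phosphate and full inhibition by luteolin; about four in five hits inhibit and the cells do not say which; series up to 57 µM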
Starred values were filed as active, the others as inactive; i = inactive; ? = inconclusive; . = not tested or not shown.

SMILES | TsaE inh | PK Bst
CC(=O)c1cccc(NC(=O)c2cc(-c3ccc(F)cc3)on2)c1 | i | >57
O=C(Nc1ccc(Cc2ccc(NC(=O)C3CC3)c(O)c2)cc1O)C1CC1 | i | >57
Brc1cccc(/C=N\n2cnnc2)c1 | i | >57
CCN1CCN(C(c2cccs2)C(C)NS(=O)(=O)c2ccc(F)cc2)CC1 (configuration not stated) | i | .
COc1ccccc1C(c1nnnn1C(C)(C)C)N1CCN(Cc2ccncc2)CC1 (configuration not stated) | i | >57
O=C(O)CC(C(=O)N(c1ccccc1)c1ccccc1)N1CCOCC1 (configuration not stated) | . | >25.6
Clc1ss/c(=N\c2ccccn2)c1Cl | i | >57
O=S(=O)(Nc1nc2ccccc2nc1NCc1ccco1)c1cccs1 | i | >57
O=C(Nc1ccccc1)N(C1=NCCC1)c1ccc(OC(F)F)cc1 | i | >57
O=C1c2ccccc2C(Nc2ccc3nc(-c4cccnc4)[nH]c3c2)N1Cc1ccco1 (configuration not stated) | i | .
Cc1cc(-c2nc3ncccc3o2)ccc1NC(=O)CC(C)C | i | .
COc1ccccc1CN1CCC2(CC1)CCN(C(=O)c1ccco1)CC2 | i | .
O=C1CCC(C(=O)OCc2cc(Cl)ccc2OC(F)F)N1 (configuration not stated) | i | >57
Cc1cc(=O)[nH]c(N2CCCC2)n1 | i | .
O=C(Cc1cccs1)NCc1ccco1 | i | >57
CCOc1ccc(C2/C(=C(/O)c3ccccc3)C(=O)C(=O)N2CCCN(C)C)cc1OC (configuration not stated) | i | >57
COc1ccc(Cc2nc(-c3ccc(-n4cccc4)cc3)no2)cc1OC | i | .
O=C(CN1C(=O)c2cccc3cccc1c23)N1CCN(c2ccc(F)cc2)CC1 | i | >57
O=C(O)[C@H]1C[C@@H](CP(=O)(O)O)CCN1 | i | .
COC(=O)c1cc2oc(C)cc2n1CC(=O)Nc1cc(C)cc(C)c1 | i | >57
C=C(C)C1CCC(C)=C1CC(C)(C)/C=N\n1cnnc1 (configuration not stated) | i | .
CN(CCCNC(=O)C1CCN(S(=O)(=O)N2CCC3(CC2)OCCO3)CC1)Cc1ccccc1 | i | >57
Cn1c(=O)n(Cc2ccccc2)c(=O)c2c1nc(NCC1CCCO1)n2Cc1ccccc1 (configuration not stated) | . | >25.6
O=C(NCCO)C1(c2ccccc2)CCCC1 | . | >11.4
O=c1c2ccccc2c2ccccc2c(=O)n1Cc1ccco1 | i | i
CN(C)CCCN1C(=O)c2oc3ccccc3c(=O)c2C1c1cccs1 (configuration not stated) | i | >57
COc1ccc(N(CC(=O)NCc2ccco2)S(=O)(=O)c2c(C)nn(C)c2C)cc1 | i | .
CN1C(=O)CSc2ccc(NC(=O)NCc3cccnc3)cc21 | i | >57
CSC1=NCCN1C(=O)Cc1cccs1 | i | .
Cc1nnc(SCCCN2C(=O)c3ccccc3C2=O)o1 | i | >57
O=C(c1cc2ccccc2o1)c1nc2c(n1O)CCCCC2 | i | >57
COCCn1nnnc1C(c1cc2cc(OC)ccc2[nH]c1=O)N1CCC(Cc2ccccc2)CC1 (configuration not stated) | i | >57
CCN(CC)S(=O)(=O)c1cc(C(=O)n2cccn2)c(Cl)cc1Cl | i | >57
CCN1CCCC1CNC(=O)C1c2ccccc2C(=O)N(CCOC)C1c1ccc(F)cc1 (configuration not stated) | i | >57
CC1=CC(=O)CC(C)(C)[C@@]1(O)/C=C\C(C)=C\C(=O)O | i | .
COCCNC(=O)C1(CC(C)C)C=CCN1C(=O)OC (configuration not stated) | i | .
O=C(COc1ncnc2ccccc12)NC1CCS(=O)(=O)C1 (configuration not stated) | i | >57
O=C1CCCc2nc(N3CCN(C(c4ccccc4)c4ccccc4)CC3)ncc21 | i | >57
O=C(c1ccco1)N1CCN(c2ncnc3c2[nH]c2ccccc23)CC1 | . | i
CCCn1c(SCC(=O)N2CCN(S(=O)(=O)c3ccc(Cl)cc3)CC2)n[nH]c1=O | i | >57

15 of these compounds in a different format:
SMILES,TsaE inh,PK Bst
CN(C)CCCN1C(=O)c2oc3ccccc3c(=O)c2C1c1cccs1 (configuration not stated),i,>57
COc1ccc(N(CC(=O)NCc2ccco2)S(=O)(=O)c2c(C)nn(C)c2C)cc1,i,.
CN1C(=O)CSc2ccc(NC(=O)NCc3cccnc3)cc21,i,>57
CSC1=NCCN1C(=O)Cc1cccs1,i,.
Cc1nnc(SCCCN2C(=O)c3ccccc3C2=O)o1,i,>57
O=C(c1cc2ccccc2o1)c1nc2c(n1O)CCCCC2,i,>57
COCCn1nnnc1C(c1cc2cc(OC)ccc2[nH]c1=O)N1CCC(Cc2ccccc2)CC1 (configuration not stated),i,>57
CCN(CC)S(=O)(=O)c1cc(C(=O)n2cccn2)c(Cl)cc1Cl,i,>57
CCN1CCCC1CNC(=O)C1c2ccccc2C(=O)N(CCOC)C1c1ccc(F)cc1 (configuration not stated),i,>57
CC1=CC(=O)CC(C)(C)[C@@]1(O)/C=C\C(C)=C\C(=O)O,i,.
COCCNC(=O)C1(CC(C)C)C=CCN1C(=O)OC (configuration not stated),i,.
O=C(COc1ncnc2ccccc12)NC1CCS(=O)(=O)C1 (configuration not stated),i,>57
O=C1CCCc2nc(N3CCN(C(c4ccccc4)c4ccccc4)CC3)ncc21,i,>57
O=C(c1ccco1)N1CCN(c2ncnc3c2[nH]c2ccccc23)CC1,.,i
CCCn1c(SCC(=O)N2CCN(S(=O)(=O)c3ccc(Cl)cc3)CC2)n[nH]c1=O,i,>57

Additional records.
SMILES | TsaE inh | PK Bst
CCCN1C[C@@H](CSC)C[C@H]2c3cccc4[nH]cc(c34)C[C@@H]21 | i | .
COc1cc(C(=O)NCc2nnc(SCC(=O)Nc3cccc(C)c3)o2)cc(OC)c1OC | i | >57
CCOc1ccccc1C(=O)NC(C)c1ccc2c(c1)OCO2 (configuration not stated) | i | >57
CSc1cccc(NC(=O)C2CCN(S(C)(=O)=O)CC2)c1 | i | >57
O=C(OCCOc1ccc(Br)cc1)c1cnccn1 | i | >57
O=C(CN1C(=O)CSc2ccccc21)Nc1ccc2c(c1)OCCO2 | i | >57
Cc1c(C(=O)N2CCOCC2)sc2ncn(CC(=O)N3CCC(C)CC3)c(=O)c12 | i | >57
COc1ccc(CNC(=O)c2cnn3c(C(F)F)cc(C)nc23)cc1OC | i | .
CN(Cc1ccco1)c1ncnc2ccc(-c3ccccc3C(F)(F)F)cc12 | i | .
COC(=O)[C@@]1(Cc2ccc(OC)cc2)[C@H]2c3cc(C(=O)N(C)C)n(CCc4ccc(OC)c(Br)c4)c3C[C@H]2CN1C(=O)c1ccccc1 | i | .
COC(=O)[C@@]1(Cc2ccccc2)[C@H]2c3cc(C(=O)N(C)C)n(Cc4ccccc4)c3C[C@H]2CN1C(=O)c1ccccc1 | i | .
COc1cc(C2N(c3ccccc3)CCN2c2ccccc2)ccc1OC(C)=O | i | .
CCOC(=O)CSc1nc2sc(C)c(C)c2c(=O)n1C | i | .
CCOc1c(Br)cc(CNc2ncn[nH]2)cc1OC | i | >57
Cc1cc(N=Cc2c(O)n(-c3ccc4c(c3)OCO4)c(=O)c3ccccc23)ccn1 | i | >57
Cc1ccc(NC(=O)C2(N(CC(C)C)C(=O)Cn3nnnc3N)CCCCC2)cc1 | i | >57
CC(C)(C)OC(=O)N1CC=C2C(C#N)=C(N)C(C#N)(C#N)C(c3cccs3)C2C1 (configuration not stated) | ? | >57
Nc1cccc(S(=O)(=O)c2cccc(N)c2)c1 | i | >57
CCn1c(O)c(C=Nc2ccccc2)oc1=S | i | >57
Cc1occc1C(=O)NCc1cccs1 | i | .
Cc1[nH]n(-c2ccccc2)c(=O)c1/C=N/O | i | .
Cc1ccc(N(CC(=O)N2CC(=O)Nc3ccccc32)S(=O)(=O)c2ccc3c(c2)OCCO3)cc1 | i | >57
Cc1nn(-c2ccccc2)c(C)c1/C=N/O | i | .
CCCNC(=O)c1cc(-c2ccc(Br)cc2)on1 | i | >57
CCOc1ccc(-c2nnn(CC(=O)Nc3ccccc3OC)n2)cc1OCC | i | >57
COc1ccc2c(c1)CCc1c(C(=O)N3CCc4ccccc4C3)noc1-2 | i | >57
Cc1nnc(SCC(=O)n2c3c(c4ccccc42)CCCC3)s1 | i | >57
CC1=C(c2ccc(Cl)cc2)[N+](=O)C(C)(C)N1[O-] | . | >25.6
Clc1ccc(OCc2nn3c(-c4ccncc4)nnc3s2)cc1 | i | >57
CCN(CC)C(=O)CSc1nnc(-c2ccccn2)n1-c1ccc(C)c(C)c1 | i | >57
O=C(Nc1cccnc1)c1ccc(COc2ccccc2Br)o1 | i | >57
O=C1COc2ccc(C(=O)COC(=O)C3CCN(S(=O)(=O)c4cccs4)CC3)cc2N1 | i | >57
Cc1ccc(N2CCN(S(=O)(=O)N(C)C)CC2)c(C)c1 | i | .
Cc1ccccc1NC(=O)CN1CCC(NC(=O)Nc2ccccc2)CC1 | i | >57
CCOC(=O)c1nn(-c2sc(C(=O)OC)c(C)c2C(=O)OC)cc1O | i | >57
Cc1ccc(-c2nc3ncccc3o2)cc1NC(=O)c1ccco1 | i | .
O=C(Cc1cccs1)N(c1ccc(Cl)cc1)C1C=CS(=O)(=O)C1 (configuration not stated) | i | >57
COc1ccccc1OCC(=O)Nc1cccc(-c2nc3ccccc3o2)c1 | i | >57
CN(CC(=O)Nc1nc2ccccc2s1)S(=O)(=O)c1ccccc1 | i | >57
O=C(Oc1ccccc1)N1CCN(c2ccc(F)cc2)CC1 | i | .
CCOC(=O)c1ccc(-n2[nH]c(-c3ccccc3)cc2=O)cc1 | i | >57
CCCOC(=O)c1ccc(NC(=O)C2CCCO2)cc1 (configuration not stated) | i | .
Cc1cc(C)nc(-n2nc(C)cc2Nc2ccccc2)n1 | i | i
COc1ccc(OC)c(NC(=O)COc2ccc(S(=O)(=O)NC(C)C)cc2)c1 | i | >57
O=C(Nc1cccnc1)c1ccc2c(c1)OCO2 | i | >57
Cc1ccccc1S(=O)(=O)Nc1nc2ccccc2nc1N1CCOCC1 | i | >57
COc1ccc2c(CCNC(=O)c3ccco3)c[nH]c2c1 | i | .
Cc1ccc(NCc2nnc(SCCN3CCCCC3)n2CC2CCCO2)cc1Cl (configuration not stated) | i | >57
CC1CCN(Cc2ccc(NC(=O)C3CCN(c4nnc(-n5cccc5)s4)CC3)cc2)CC1 | i | .
CC(C)CCN1CC(C(=O)NCc2ccccc2)CC1=O (configuration not stated) | i | >57
Remaining list, next part:
SMILES | TsaE inh | PK Bst
C[N+]1(CCN=C=NC2CCCCC2)CCOCC1 | i | .
COc1ccc2[nH]cc(CCNc3ncnc4ccc(-c5cccc(C#N)c5)cc34)c2c1 | i | .
O=C(NC1CCCCC1)C1CCCN(S(=O)(=O)c2cnc[nH]2)C1 (configuration not stated) | i | .
O=C(c1cnc2sccn2c1=O)N(Cc1ccccc1)c1ccccn1 | i | .
O=C(CCCN1C(=O)CCC1=O)Nc1ccc2c(c1)OCCO2 | i | >57
CC(=O)Oc1c(S(=O)(=O)c2ccc(C)cc2)c(C)nn1-c1ccccc1 | i | >57
Cc1ccc2cc(C#N)c(SCC(=O)NCC3CCCO3)nc2c1C (configuration not stated) | i | >57
O=C(Nc1ccc2c(c1)OCCO2)C1CCN(C(=O)c2ccc(Br)cc2)CC1 | i | ?
CCOc1ccc(-c2nc(C#N)c(N3CCN(Cc4ccccc4)CC3)o2)cc1 | i | .
c1cc2c(cc1C(N1CCNCC1)N1CCNCC1)OCO2 | i | .
Cc1ccc(C2=N/C(=C/N3CCOCC3)C(=O)O2)cc1 | i | .
COc1cc(C(=O)OCC(=O)c2cc(C)n(C)c2C)cc(NC(=O)c2ccco2)c1OC | i | >57
O=C(NCCc1ccccc1)c1ccncc1 | i | .
CCc1nn(CC(=O)NCCCN2CCc3ccccc3C2)c(=O)c2cc3sccc3n12 | i | .
CCOC(=O)c1sc(NC(=O)c2ccc3ncsc3c2)nc1C | i | .
COCC(=O)Oc1c(S(=O)(=O)c2ccc(C)cc2)c(C)nn1-c1ccccc1 | i | >57
CC1Cc2nc(SCC(=O)Nc3ccccc3F)n(C)c(=O)c2S1 (configuration not stated) | i | >57
CC12CN3CC(C)(CN(C1)C3c1ccc(Br)cc1)C2=O (configuration not stated) | i | .
O=C(NCC1CCCO1)C1CC(c2ccc(Cl)c(Cl)c2)=NO1 (configuration not stated) | i | >11.4
O=Cc1ccc(CO)o1 | i | .
[O-][n+]1c2c(nn1-c1ccccc1Cl)-c1nonc1CC2 | i | >57
COc1cccc(C2CC(c3ccc(C)cc3)n3ncnc3N2)c1 (configuration not stated) | i | .
O=C(CCCC(=O)N(CC(=O)NC1CCCC1)Cc1ccc2c(c1)OCO2)Nc1ccccn1 | i | >57
O=S(=O)(c1cccc2c(I)cccc12)N1CCCNCC1 | i | .
COc1ccc(-c2ccc(-c3noc(-c4ccco4)n3)c(OC)n2)cc1 | i | >57
COc1ccc(C2C3=C(CC(C)(C)CC3=O)Oc3ncn(Cc4ccco4)c(=N)c32)cc1 (configuration not stated) | i | >57
CC(=O)Nc1ccc(S(=O)(=O)N=S(C)C)cc1 | i | .
O=C(COc1ccc(S(=O)(=O)N2CCCC2)cc1)NCCC1=CCCCC1 | i | >57
C[C@@H]1CCCC(CC(=O)O)(CC(=O)O)C1 | i | .
CCc1ccccc1NS(=O)(=O)c1ccc(SC)cc1 | i | .
CCn1c(N)c(C(=O)NCCCOC)sc1=S | i | >57
CCCc1[nH]nc2c1C1(C(=O)N(CC)c3ccccc31)C(C#N)=C(N)O2 (configuration not stated) | i | >57
NC(=O)c1ccc(-n2nnnc2SCC(=O)Nc2ccc(N3CCOCC3)c(Cl)c2)cc1 | i | >57

An excerpt; rates above refer to the full screens.
